Compound activity as filed in PubChem.
Ba CapD inh: CapD enzyme inhibition; z-score (no concentration beside the values); AID 492967; purified CapD enzyme, fluorescence intensity read-out; hits give low values; some hits fall short of the stated cut; actives 0.23% (n = 140,000);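 active means z-score under -4 in either of two replicates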;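 further: stock transfer was 100 nL into about 40 µL; score is relative to mean and spread of the plate; one replicate is shown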
AID504770: E. coli YBA685 growth inhibition, screen for V. cholerae RctB inhibitors | actives 0.27% (n = 130,000) | E. coli YBA685 rctB-dependent plasmid, OD600 growth, 3 h; hits give low values | z-score (test concentration not listed);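 active means z-score under -2 on both plates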;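 further: wells of about 30 µL received 100 nL stock; score is relative to mean and SD of the test wells; the first replicate is given; strong numbers were not always called active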
The depositor's hits bear a star; · = not tested or not shown. Not all compounds are listed. The share of hits here may be higher or lower than overall.

Compound	Ba CapD inh	AID504770
CCOc1cc(-c2nc3sc4c(c3c(=O)[nH]2)CCCC4)ccc1OS(=O)(=O)c1ccc(C)cc1	1.5	·
O=C(Nc1ccc(-c2nc3ncccc3o2)cc1)c1ccccc1	0.15	0.4
CCCc1n[nH]c(=O)c2c1nnn2Cc1ccccc1	-0.005	-0.15
O=c1c(C=NC2CC2)c(O)n(C2CCCCC2)c(=O)n1C1CCCCC1	0.24	-0.6
CC1CCCCN1C(=S)NCc1ccco1 (stereo not drawn)	·	0.05
Cc1nc2ccccc2c(=O)n1NC(=O)c1ccccc1	·	-0.3
COc1ccc(Oc2nc(C)cc(C)c2S(=O)(=O)c2ccc(C)cc2)cc1	-0.11	·
O=C(Cc1ccccc1)NC1CCN(S(=O)(=O)c2cccc(Cl)c2Cl)CC1	-0.3	·
COc1ccc(COC(=O)C2=C(C)NC(=O)NC2c2cc(Cl)c(O)c(OC)c2)cc1 (stereo not drawn)	-2.5	·
COC(=O)c1ccc(COC(=O)C2COc3ccccc3O2)o1 (stereo not drawn)	·	-0.75

Next section
Compound	Ba CapD inh	AID504770
COC(=N)c1nccnc1SCc1ccc(F)cc1	-0.12	-1.6
Cc1ccc2[nH]c(=O)c(CN(C)C(=O)C(C)C)cc2c1	·	-0.65
Cc1cc(C)c2c(-n3cccc3)c(C(=O)c3ccc(Cl)cc3)sc2n1	-0.81	·
COc1cc(C(=O)Nc2ccccc2C(=O)OCc2cc(=O)n3oc(C)cc3n2)cc(OC)c1OC	12	1
Cc1cc(C(=O)NCC2COc3ccccc3O2)no1 (stereo not drawn)	·	0.2
O=C1CCC2(C(=O)O)N1c1ccccc1C(=O)N2C1CC1 (stereo not drawn)	·	-0.1
O=c1ccn(CN2CCCCC2)c(=O)n1CN1CCCCC1	0.12	-0.7
COc1cc(C2NC(=O)NC(C)=C2C(=O)OC2CCCCCC2)cc(Cl)c1O (stereo not drawn)	0.34	·
Cn1c(=O)c2c(nc3n(-c4ccc5c(c4)OCCO5)c(-c4ccccc4)cn23)n(C)c1=O	-0.09	·
CN1C(=O)C(/C(N)=N\NC(=O)c2ccccc2)C2CC1(C)Oc1ccccc12 (stereo not drawn)	0.21	0.7

More records follow.
Compound	Ba CapD inh	AID504770
O=C1c2sc3nnc(-c4ccccc4)c(=O)n3c2C(=O)N1c1ccc(Br)cc1	0.3	·
CCN(CC)CC(N)c1ccccc1 (stereo not drawn)	·	-0.95
O=C(NC1CCCC1)c1n[nH]c(=O)c2ccccc12	2.5	0.15
O=C(Nc1nccs1)c1cccc2c1-c1ccccc1C2=O	-0.71	1.5
CSC1=NC2(CCCCC2)NC2=C1CCCC2	-0.92	0.1
COc1ccc(NCc2cn[nH]c2-c2ccccc2)c(OC)c1	0.57	-0.2
O=S(=O)(NCCNS(=O)(=O)c1cc(C(F)(F)F)cc(C(F)(F)F)c1)c1cc(C(F)(F)F)cc(C(F)(F)F)c1	0.31	·
COC(=O)c1cc2cc(NS(=O)(=O)c3ccc(Cl)cc3)ccc2s1	0.27	·
NCCSc1n[nH]c(=O)[nH]c1=O	·	-0.1
COC(=O)c1ccccc1NC(=O)Cn1c(SC)nc2ccccc21	0.12	·

Further records
Compound	Ba CapD inh	AID504770
CC(=O)C1=NN(c2ccccc2[N+](=O)[O-])C2(S1)SC(c1ccc(C)cc1)(c1ccc(C)cc1)c1ccccc12 (stereo not drawn)	-0.39	·
Cc1onc(-c2c(Cl)cccc2Cl)c1NC(=O)Nc1ccc(Cl)cc1	-0.27	0.25
CC1CCCC(C)N1C(=O)COc1ccc(C(=O)N=Nc2c(O)[nH]c3ccccc23)cc1 (stereo not drawn)	·	0.45
Cc1cc2c(c(=O)o1)C(C(C)C)C(C#N)=C(N)O2 (stereo not drawn)	·	-0.75
Cc1cc(SCC2=NNC(=O)C2)c(Cl)cc1Cl	0.31	0.15
CC(=O)Oc1cc2c(C(=O)N3CCOCC3)c(C)oc2c2ccccc12	·	0.7
CN(C)c1ccc(/C=C2/N=C(c3cccs3)OC2=O)cc1	0.23	-0.6
COCc1cc(=O)[nH]c(/N=C(\NC(=O)c2ccc(C)cc2)Nc2cccc(Cl)c2)n1	3.1	0.85
COc1cc(/C=N/NC(=O)C2C3CCCCC32)ccc1OC(=O)OC(C)(C)C (stereo not drawn)	-0.01	·
O=c1cc(CSc2nnc(COc3ccc(Cl)cc3)n2Cc2ccco2)nc2ccc(Br)cn12	·	2.2

Grouped by structure, the compounds so far with four or more nitrogen atoms
Compound	Ba CapD inh	AID504770
CCCc1n[nH]c(=O)c2c1nnn2Cc1ccccc1	-0.005	-0.15
O=c1ccn(CN2CCCCC2)c(=O)n1CN1CCCCC1	0.12	-0.7
Cn1c(=O)c2c(nc3n(-c4ccc5c(c4)OCCO5)c(-c4ccccc4)cn23)n(C)c1=O	-0.09	·
CN1C(=O)C(/C(N)=N\NC(=O)c2ccccc2)C2CC1(C)Oc1ccccc12 (stereo not drawn)	0.21	0.7
O=C1c2sc3nnc(-c4ccccc4)c(=O)n3c2C(=O)N1c1ccc(Br)cc1	0.3	·
NCCSc1n[nH]c(=O)[nH]c1=O	·	-0.1
CC1CCCC(C)N1C(=O)COc1ccc(C(=O)N=Nc2c(O)[nH]c3ccccc23)cc1 (stereo not drawn)	·	0.45
COCc1cc(=O)[nH]c(/N=C(\NC(=O)c2ccc(C)cc2)Nc2cccc(Cl)c2)n1	3.1	0.85
O=c1cc(CSc2nnc(COc3ccc(Cl)cc3)n2Cc2ccco2)nc2ccc(Br)cn12	·	2.2

New compounds follow:
Compound	Ba CapD inh	AID504770
N#Cc1c2c(c(N3CCOCC3)n3c1nc1ccccc13)CCC2	-0.44	·
O=C(O)CC(CC(=O)Nc1ccc(I)cc1F)c1ccc(C(F)(F)F)cc1 (stereo not drawn)	0.52	·
CN(C)c1cccc(C(=O)Oc2ccccc2Cl)c1	·	0.05
CSc1nc(-c2ccccc2)c(C#N)c(N2CCCC2)n1	-0.13	-1.4
COc1ccc(N2CC(O)(c3ccc(C)cc3C)[N+]3=C2CCCC3)cc1 (stereo not drawn)	0.32	·
CC(Sc1nnc(Nc2ccccc2F)s1)C(=O)N1CCc2ccccc21 (stereo not drawn)	·	0.85
Cc1ccc(NC(=O)c2c(NC(=O)c3ccccc3F)sc3c2CCCCC3)cc1	-0.095	·
C=CCN=c1sc(C(=O)OC)cc(=O)n1CC=C	-1	-0.75
C=CCN=C(SCc1ccccc1)N1CCCC1	-0.24	1.6
CC(=O)N1C(=O)C2(C(C#N)=C(N)Oc3n[nH]c(-c4ccncc4)c32)c2ccccc21 (stereo not drawn)	0.085	·

(list continues)
Compound	Ba CapD inh	AID504770
Cn1c(SCc2ccc(C(F)(F)F)cc2)nnc1C(F)(F)F	10	1.1
Cn1cnc2cc(NCc3ccc(Br)cc3)ccc21	8.1	-0.95
COc1ccccc1-c1nnc(-c2cccs2)o1	39	-0.45
CCN(CC)C(=O)c1csc(Nc2ccc(C)cc2)n1	·	-1.3
Nn1cc(-c2ccccc2)nc1SCC(=O)Nc1cccc2nsnc12	·	-1.1
Cc1noc(C)c1CSCC(=O)Nc1nc(SCc2ccc(Cl)cc2)n[nH]1	·	0.45
CC1=C(O)C(=O)/C(=C/N(C)C)C1	-1	-0.15
O=C1Nc2ccccc2C12OCCCO2	·	-1.1
CC(=O)Nc1ccc(S(=O)(=O)Nc2cc(C(F)(F)F)cc(C(F)(F)F)c2)cc1	0.43	·
CCOC(=O)c1ccc(NC(=O)C2CC(=O)N(C)C(=Nc3ccc(F)cc3)S2)cc1 (stereo not drawn)	-0.01	·

Next entries
Compound	Ba CapD inh	AID504770
CCOC(=O)c1c(NC(=O)CCc2ccccc2)sc(C(=O)Nc2cc(C(F)(F)F)ccc2Cl)c1C	0.63	·
CCCn1c(C)cc(/C=C(\C#N)C(=O)N2CCN(S(=O)(=O)c3ccccc3C(F)(F)F)CC2)c1C	·	1.5
CC1CCCCN1S(=O)(=O)c1cccc2nonc12 (stereo not drawn)	-0.13	·
O=C(CSc1nnc(-c2ccc(Cl)cc2)o1)N1CCCC1c1ccc2c(c1)OCCCO2 (stereo not drawn)	·	-0.25
N#Cc1c2ccc(O)cc2n2ccccc12	·	-0.2
CC(Cc1cccs1)NS(=O)(=O)c1ccccc1 (stereo not drawn)	·	0.7
C=CCn1c(=O)c(C(=O)Nc2nc(CC(=O)OCC)cs2)c(O)c2ccccc21	-1.3	·
CCN(c1ccc(F)cc1)S(=O)(=O)c1ccc2[nH]cc(C(=O)NCCCN3CCOCC3)c(=O)c2c1	7.2	·
CCN1C(=O)c2cccc3c(S(=O)(=O)N4CCCCCC4)ccc1c23	-0.32	-0.5
COc1cccc(N(C)C(=O)/C=C/c2ccc(F)cc2)n1	·	1

Continued.
Compound	Ba CapD inh	AID504770
Cc1ccc2nc(-c3ccc(Cl)cc3)cc(C(=O)N3CCOCC3)c2c1	-0.48	·
Cc1onc(-c2ccccc2)c1C(=O)Nc1sccc1C#N	·	-0.4
N#Cc1ccc(OCc2noc(-c3ccsc3)n2)cc1	-0.38	1.6
N#CCCS(=O)(=O)c1nnnn1-c1ccccc1	0.025	0.6
CCOC(=O)c1ccccc1NC(=O)COC	8	1.2
CCN(C)C(=O)/C=C/c1cnc2ccccc2c1	4	0.45
CCCc1ccc(S(=O)(=O)NCCOc2ccc(OC)cc2)cc1	-0.4	·
O=c1oc2ccccc2c(O)c1CN1CCCC1	0.33	-0.75
CC(=O)Nc1ccc(Sc2ccccc2C(=O)N2CCOCC2)cn1	0.12	·
O=C1/C(=C/c2cccs2)COc2ccccc21	·	-0.1

(next part)
Compound	Ba CapD inh	AID504770
NC(=O)c1ccc(NC(=O)COc2ccc(F)cc2Cl)cc1	·	0.45
O=C(O)Cc1ccccc1C(=O)N1CCN(c2nc(-c3ccccc3)ns2)CC1	-0.96	·
COCC(C)n1c(SCc2ccc(C(=O)OC)o2)nc2ccccc2c1=O (stereo not drawn)	·	-0.45
Nc1nc(Cl)cc(N2CCOCC2)n1	·	-0.95
COC(=O)c1ccc(S(=O)(=O)N2CCCN(c3nccc(C(F)(F)F)n3)CC2)n1C	4.4	0.95
COc1ccc(Br)cc1CSCCC#N	0.28	-0.45
COc1ccc([N+](=O)[O-])cc1NC(=O)c1sc2ncnc(N3CCCCC3)c2c1C	-0.3	·
CCOC(=O)C1CCCN(C(=O)CSc2ccc(NC(C)=O)cc2)C1 (stereo not drawn)	·	1.5
Cn1c2ccccc2n2c(CCC(=O)O)c(-c3ccccc3)nc12	-0.58	-0.75
c1coc(-c2nc3sc4c(NCCN5CCOCC5)ncnc4c3c3c2CCCC3)c1	21	-0.55

(listing goes on)
Compound	Ba CapD inh	AID504770
Cc1cc(SCC(=O)NC(C)(C#N)C(C)C)nc2ccccc12 (stereo not drawn)	·	0.25
O=S(Cc1ccccc1)c1ccccc1 (stereo not drawn)	0.1	0.5
CCN(CC)Cc1cc(NC2=NS(=O)(=O)c3ccccc32)ccc1OC(=O)c1ccc(OC)cc1	-1.2	·
Cc1ccc(SCC2=NNC(=O)C2)cc1	1.9	1.2
COc1ccc(CC2c3cc(OC)c(OC)cc3CCN2C(=S)Nc2ccc(Cl)cc2C)cc1OC (stereo not drawn)	0.03	·
CC(NCc1ccccc1O)c1ccccc1 (stereo not drawn)	·	0.85
CCOC(=O)c1sc(NC=O)c(C(=O)OCC)c1C	2	0.3
CN(C(=O)Cn1c(=O)c2ccccc2n(C)c1=O)C1CCCCC1	2.1	·
O=[N+]([O-])c1ccc(Oc2ccc(Cl)c(Cl)c2)c(Br)c1	-0.3	·
CSc1nc(NCCOC(=O)c2ccco2)c(C#N)c(-c2ccc(C(C)(C)C)cc2)n1	-1.7	1.5

Later entries.
Compound	Ba CapD inh	AID504770
COc1cc2c(cc1OC)C(C1=NC(C)(C)Cc3ccccc31)=NC(C)(C)C2	-0.37	·
COc1ccc(C(=O)N2CCN(C(=O)OCc3ccc(SC(F)(F)F)cc3)CC2)cc1F	0.33	·
CCOC(=O)N1CCN(c2ncnc3scc(-c4ccccc4)c23)CC1	-0.85	·
CCOC(=O)c1[nH]c(COC(=O)CCc2ccccc2)c(C(=O)OCC)c1C	·	-0.25
CCNc1nc(NCC)nc(OCCOC(=O)c2ccccc2)n1	0.26	·
O=S(=O)(N=S(N1CCOCC1)N1CCOCC1)c1ccccc1	·	0.75
COc1cccc(NC(=O)CSc2nnc3scc(-c4ccccc4)n23)c1	-0.085	1.8
CCOc1ccccc1N/C(SCc1cccc(F)c1)=C(/C#N)C(=O)NCc1ccccc1	-0.29	·
O=C(/C=C/c1cccs1)Nc1ccccc1N1CCCCC1	-2.3	-0.25
COC(CN(Cc1nc(N)nc(Nc2ccc(C)cc2)n1)Cc1nc(N)nc(Nc2ccc(C)cc2)n1)OC	·	0.65

(more compounds)
Compound	Ba CapD inh	AID504770
CNC(=O)c1cnn2c(C(F)(F)F)cc(C(F)(F)F)nc12	-0.34	-0.35
C=CCN(CC=C)CC(O)Cn1c(-c2ccc(OC)cc2)cc2ccccc21 (stereo not drawn)	-0.1	-0.15
O=C(NCc1ccc2c(c1)OCO2)C1CCN(c2nnc(-n3cccc3)s2)CC1	-0.74	-0.05
Cc1ccccc1NC(=O)c1ccc2c3c(onc13)-c1ccccc1C2=O	0.53	·
CCc1cc2c(=O)c(-c3nc4ccccc4[nH]3)coc2cc1OC(=O)N1CCOCC1	-0.68	-0.7
CN(c1ccc(O)cc1)c1nc(-c2cccnc2)cs1	-0.62	0.3
O=C(CC12CC3CC(CC(C3)C1)C2)N1CCOCC1	-0.29	-0.15
NC(=O)CN1C2CCC1CC(NC(=O)C1CC1)C2 (stereo not drawn)	·	-0.85
FC(F)(F)c1cccc(N2C(=S)N=C(Nc3ccccc3)C23CCCCC3)c1	-0.35	·
Cc1cc(NC(=O)c2ccc(F)cc2)c([N+](=O)[O-])cc1C	0.14	·
Cc1ccc(C)n1-c1c(C)n(C)n(-c2ccccc2)c1=O	·	-0.1
Cc1cc(C(F)(F)F)nc(SCC(=O)Nc2ccccc2)c1C#N	-0.48	·
